# Rce1 inh = blocks yeast Ras-converting enzyme; 290,000 compounds, 0.27% hits; AID 2563; yeast membranes, quenched prenylated peptide cleavage fluorescence; Q03530; calls only;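 active = fall in fluorescence gain of 50% or more versus controls, with final raw signal at or below 3038400; inconclusive = same 50% fall but final raw signal above 3038400; inactive = fall in fluorescence gain under 50%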;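 note: plate controls were neutral control wells for no effect and wells lacking membranes for full effect; tested at 10 µM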
# eIF4H inh = inhibitors of RNA binding by human eIF4H | inhibition, % at 35 µM | AID 2012 | eIF4H fluorescence polarization binding assay | 290,000 compounds, 0.94% hits;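 active = 50% or more with normal probe brightness, or confirmed in later tests; inconclusive = above 50% with abnormal brightness, or retests that disagree; inactive = below 50% or failed in later tests; about a fifth of its hits are not listed in these tables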;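 note: calls also rest on retests at 20 µM and on dose response follow-up; 0% = protein and probe with vehicle and 100% = probe without protein; strong numbers were not always called active; many hits fall short of the cut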
# HIV Env fusion = inhibitors of HIV Env-mediated cell fusion | HeLa-JRFL Env/CEM21 cell fusion, luciferase | inhibition, % at 12.3 µM | 360,000 compounds, 1.1% hits | AID 651610;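 active = mean replicate inhibition score of at least 50 and every replicate individually at or above 50; inconclusive = only one of the two criteria met; inactive = mean below 50 and not all replicates reaching 50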;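 note: 0% = plate neutral controls and 100% = maraviroc near 300 nM; one replicate is shown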
# PABP FP inh = blocks human PABP binding to poly(A) RNA | fluorescence polarization | inhibition, % at 35 µM | 290,000 compounds, 1% hits;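 active = 50% or more with normal probe brightness, or confirmed in later tests; inconclusive = above 50% with abnormal brightness, or retests that disagree; inactive = below 50% or failed in later tests; about a fifth of its hits are not listed in these tables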;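 note: calls also rest on retests at 20 µM and on dose response follow-up; controls were probe without protein and protein plus probe with vehicle; some compounds called inactive have numbers as strong as hits; many hits fall short of the cut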
# Target sequence (P11940 whole entry, looked up): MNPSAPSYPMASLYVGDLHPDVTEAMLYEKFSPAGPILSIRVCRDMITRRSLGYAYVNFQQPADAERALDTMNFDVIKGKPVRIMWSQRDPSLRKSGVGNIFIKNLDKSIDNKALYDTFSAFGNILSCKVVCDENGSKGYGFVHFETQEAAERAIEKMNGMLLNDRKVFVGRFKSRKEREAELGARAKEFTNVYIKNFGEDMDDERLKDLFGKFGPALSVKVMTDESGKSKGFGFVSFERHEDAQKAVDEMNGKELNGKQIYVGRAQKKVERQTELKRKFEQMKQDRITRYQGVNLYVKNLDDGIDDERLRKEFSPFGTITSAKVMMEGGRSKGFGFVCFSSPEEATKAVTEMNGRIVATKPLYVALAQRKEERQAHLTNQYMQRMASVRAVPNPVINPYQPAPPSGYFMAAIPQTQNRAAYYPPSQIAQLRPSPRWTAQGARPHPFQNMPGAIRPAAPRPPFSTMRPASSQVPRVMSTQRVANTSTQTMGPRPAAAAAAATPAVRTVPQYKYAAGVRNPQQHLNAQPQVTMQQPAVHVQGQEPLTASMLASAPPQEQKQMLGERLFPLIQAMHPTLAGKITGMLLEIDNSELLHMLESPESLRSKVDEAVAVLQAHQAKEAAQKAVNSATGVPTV
# Yeast UUG start = modulators of start codon recognition fidelity in yeast. S. cerevisiae UUG-firefly luciferase reporter, luminescence/redox ratio. activity score, % at 18.7 µM. 350,000 compounds, 0.13% hits;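 active = replicate mean at a twofold rise or more, about +100% in these data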;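 note: firefly luciferase made from a UUG start codon reports start codon fidelity; reporter light over untreated wells divided by growth signal over untreated wells; some hits fall short of that in this replicate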
# CSC inhib = cancer stem cell inhibition; 300,000 compounds, 1.1% hits; cancer stem cell-like cells viability, luminescence; inhibition, % at 7.5 µM;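 active = mean at 75% or more and at least half the replicates too; inconclusive = mean and replicates disagree; tested in HMLE shEcad cells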;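 note: 0% = median of negative and 100% = median of positive control wells; the first replicate is given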
# MT1-MMP act inh = inhibitors of human MT1-MMP activation; HT1080 RFP-PRO-GFP cells, GFP/RFP ratio fluorescence, overnight; percent of plate control window, DMSO zero; P50281; AID 651647; 360,000 compounds, 0.061% hits; GFP/RFP ratio change, % at 20 µM;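 active = GFP/RFP ratio change of at least 30% with cell ATP level not reduced by more than half and red fluorescence within 50% of control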; note: strong numbers were not always called active
#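 Assay system: HT1080 RFP-PRO-GFP cells | Dosing: 20 µM single dose, 1% DMSO | Incubation: Cells overnight before dosing, compound overnight, 37 °C, 5% CO2 | Evaluation: GFP/RFP fluorescence ratio | Control set: DMSO-only wells and HT1080 RFP-L50D-GFP cell wells as references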
# eIF4H inh retest = second read-out of eIF4H inh, no call of its own (marks repeat the call); inhibition, %; compound at 20 µM; confirmation average;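 mean of two retest wells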
# PABP FP inh retest = second read-out of PABP FP inh, no call of its own (marks repeat the call); inhibition, %; compound at 20 µM; confirmation repeats;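 mean of two retest wells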
# MT1-MMP act inh RFP = also measured in MT1-MMP act inh; calls as there; RFP signal change, %; measured here: RFP expression control read;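 0 = vehicle wells; hits needed this value within 50% of zero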
# * = called active by the depositor; i = inactive; ? = inconclusive; / = no result given; & = joins results of further samples. Some of the compounds tested; rates above refer to the full screens.
SMILES,Rce1 inh,eIF4H inh,HIV Env fusion,PABP FP inh,Yeast UUG start,CSC inhib,MT1-MMP act inh,MT1-MMP act inh RFP,others
CCc1ccc(NC(=O)CS(=O)CC(=O)Nc2ccc(-n3cnnn3)c(C)c2)cc1 (stereo not drawn),i,-7,3,-7,0,-7,2,-1,
COCc1ccc(C(=O)N2CCCC(C(=O)c3ccc(SC)cc3)C2)s1 (stereo not drawn),i,-1,7,-4,-5,-7,1,-3,
CC(Oc1ccc(C(=O)c2ccccc2)cc1)C(=O)Nc1ccc(S(N)(=O)=O)cc1 (stereo not drawn),i,4,23,15,/,/,0,-7,
Cc1ccc(-c2nnc(SCC(=O)N/N=C/c3ccc(C)s3)n2-c2ccccc2)cc1,i,2,12,5,/,50,1,-5,
CN(C)c1ccc(CNC(=O)/C=C/[C@H]2O[C@@H](n3cnc4c(NC(=O)c5ccccc5)ncnc43)[C@H](O)[C@@H]2O)cc1,/,/,-15,/,-10,/,-1,5,
O=C(CCN1C(=O)c2ccccc2C1=O)N1CCN(c2ccccn2)CC1,i,1,-29,-9,2,3,1,2,
CC(=O)Oc1ccc2oc(-c3ccccc3)c(C(N)=O)c2c1,i,-4,/,1,/,-10,/,/,
CCN(C(=O)CSc1nc2cc(S(=O)(=O)N(CC)CC)ccc2n1CC)C1CCS(=O)(=O)C1 (stereo not drawn),i,/,9,/,/,-6,-4,-2,
COCCCn1c(-c2ccccc2Cl)n[nH]c1=S,i,44,/,-5,-18,-6,-7,1,
COc1ccc(CCNC(=O)CNC(=O)c2ccc(Br)o2)cc1OC,i,/,-7,/,-11,-18,-4,1,
O=S(=O)(NCc1ccco1)c1ccc(S(=O)(=O)N2CCCCC2)cc1,i,-5,/,-3,-4,-2,2,0,
CCC(=O)Nc1ccc(NC(=O)c2ccco2)c(OC)c1,i,-8,-92,6,-9,/,-1,2,
CCC(C)Nc1nc(OC(C(F)(F)F)C(F)(F)F)nc(OC(C(F)(F)F)C(F)(F)F)n1 (stereo not drawn),i,-2,/,4,-3,19,6,3,
COc1cc(NC(=O)CSc2nnnn2Cc2ccc3c(c2)OCO3)cc(OC)c1,i,8,/,1,-12,0,4,3,
CCOc1ccc(-c2ccc(SC)nn2)cc1,i,-8,-2,-4,-81,46,6,2,
COc1cccc(NC(=S)NCc2ccc(F)cc2)c1,i,-8,-41,5,-20,0,0,-5,
CC1(C(=O)NCc2cccc3ccccc23)CCN1Cc1ccc2ccccc2c1 (stereo not drawn),/,/,20,/,20,/,-1,-10,
COc1ccc(/C=N/c2c(-c3ccc(OC)cc3)nc3n2CCS3)cc1,i,-6,/,-9,-19,4,5,1,
CC(C)(C)n1ncc2c(=O)n(CC(=O)OCc3ccccc3)cnc21,i,-14,/,-8,-84,-18,3,5,
Cc1ccc2c(c1)N(C)/C(=C/c1cccc[n+]1C)S2,i,6,40,64*,28,39,-77,-26,eIF4H inh retest=14;PABP FP inh retest=73*
CC(C)(C)OC(=O)N1CCCC(C(=O)Nc2cccc(C(=O)NCCCc3ccccc3)c2)C1 (stereo not drawn),/,/,?,/,-8,/,3,-12,
Cc1cccnc1NS(=O)(=O)c1cccc([N+](=O)[O-])c1,i,-2,/,-4,-28,-11,-1,4,
CCOC(=O)COc1ccc(C(c2c(C)[nH][nH]c2=O)c2c(C)[nH][nH]c2=O)cc1,i,2,-2,-6,-28,-2,4,3,
O=C(COC(=O)c1cnccn1)N=c1sccn1Cc1ccccc1Cl,i,/,3,/,-15,-5,0,1,
CN(C)CCCNC(=O)c1cccc(-c2cnc3cccnn23)c1,/,/,-6,/,-7,/,5,0,
CC(=O)N1c2ccc(S(=O)(=O)N(C)CC(=O)Nc3cccc(C)c3)cc2CC1C (stereo not drawn),i,/,-4,/,2,-1,2,-7,
CCOC(=O)N1CCN(C(=O)NC23CC4CC(CC(C4)C2)C3)CC1,i,-6,/,-8,-15,-2,16,11,
CCN1CCc2[nH]c3ccccc3c2C1,i,5,9,-8,-14,-9,-4,3,
CN1CCN(C(=O)CCN2C(=O)c3ccccc3C2=O)CC1,i,0,1,-5,/,-4,-3,-2,
C[C@H](CO)N1C[C@H](C)[C@@H](CN(C)Cc2ccc3c(c2)OCO3)Oc2cc(Br)ccc2S1(=O)=O,/,/,4,/,23,/,-2,-4,
COc1cc(NC(=O)C(=O)Nc2ccc3nc4n(c(=O)c3c2)CCCCC4)cc(OC)c1OC,i,2,-3,5,/,-12,1,-2,
S=C(NCC1CCCO1)Nc1ccccc1 (stereo not drawn),i,-4,0,-3,-17,-6,-1,5,
COc1cc(C#N)c(N=C(SCC#N)N2CCOCC2)cc1OC,i,-6,-12,-16,-53,-13,2,0,
Cc1ccc2nc(C(Cl)(Cl)Cl)nc(N/N=C/c3ccc([N+](=O)[O-])cc3)c2c1,/,/,-8,/,-10,/,-48,-43,
CC(C)Oc1ccc(C(=O)NCC(=O)OCC(=O)N(C)Cc2cccs2)cc1,i,-2,3,0,/,-6,1,0,
CC1Cc2ccccc2N1C(=O)CN1C(=O)CN(C)C(=O)c2ccccc21 (stereo not drawn),i,8,/,8,-15,0,-1,-4,
COc1ccc(-c2ccc(C#N)c(OC)n2)cc1,i,6,12,-10,/,-5,6,2,
Cc1nonc1CC(=O)NC1CC(C)(C)Cc2c1cnn2-c1ccc(F)cc1 (stereo not drawn),i,-7,0,-1,-4,-19,-2,-3,
CNC(=O)COC(=O)c1cc(-c2ccc(OC)cc2)nc2ccccc12,i,-10,-6,-6,/,12,1,0,
CCCCCCN1C[C@H](O)[C@@H](n2cc(-c3ccc(F)cc3)nn2)C[C@@H]1c1ccc(Cl)cc1,/,/,3,/,1,/,1,-7,
CCCCNC(=O)C1(C)CCN1C(=O)c1cccc(OC(C)=O)c1C (stereo not drawn),/,/,-60,/,3,/,0,-3,
O=C([C@H]1O[C@@H](n2ccc(=O)[nH]c2=O)[C@H](O)[C@@H]1O)N1CCN(c2ccc(Cl)cn2)CC1,/,/,-10,/,-15,/,3,3,
Clc1ccc2nc(-c3ccc(Br)s3)cn2c1,i,9,i,10,-33,5,8,7,
Cn1c(Cl)cnc1C(O)c1ccccc1 (stereo not drawn),i,-7,/,-4,2,-2,0,6,
CN(Cc1cnn(C)c1)C(=O)c1cc(COc2c(F)cccc2F)on1,i,-8,-2,-6,11,2,1,2,
C[C@H](CO)N1C[C@H](C)[C@@H](CN(C)S(=O)(=O)c2cn(C)cn2)Oc2c(NS(=O)(=O)c3cccs3)cccc2C1=O,/,/,22,/,11&-7,/,-2,1,
O=C(c1ccc(C(=O)N2CCOCC2)nc1)N1CCOCC1,i,2,-36,1,-12,-13,-2,1,
CCOC(=O)N1CCN(S(=O)(=O)c2ccc(C(=O)Nc3ccc(F)cc3F)cc2)CC1,i,-9,8,-9,-9,67,-13,-13,
COCCn1c(C)cc(C(=O)COC(=O)c2ccc3ncsc3c2)c1C,i,16,-18,5,-4,17,-1,2,
CCOC(=O)c1cc2occc2n1CCCN1C(=O)c2ccccc2C1=O,i,-2,4,-5,10,-1,-4,1,
COc1ccc(OC)c(C(=O)COC(=O)CN2C(=O)NC3(CCCCC3C)C2=O)c1 (stereo not drawn),i,/,-1,/,2,-8,1,2,
CCn1c(CCNC(=O)c2cccs2)nnc1SCC(=O)Nc1nc(-c2ccccc2)cs1,/,1,-1,-10,2,-7,4,-4,
O=C(Nc1ccc(F)c(F)c1)C1CCCN(S(=O)(=O)c2cccc3nonc23)C1 (stereo not drawn),i,3,2,-4,-3,-8,1,2,
CCOC(=O)c1c(C)nc(C)c2c(=O)oc3ccccc3c12,i,-2,-8,10,/,6,3,1,
COc1cccc(NC(=S)N2CCCN(Cc3ccc(F)cc3)C2)c1,i,-3,-4,-9,/,5,-2,-3,
COc1ccc(-n2c(C)cc(/C=C(\C#N)C(=O)NCc3ccco3)c2C)cc1,i,57,-6,0.2*,/,-1,5,3,eIF4H inh retest=49;PABP FP inh retest=56*
Nc1ccccc1SCC(=O)Nc1nc(-c2ccccc2)cs1,i,-3,-14,0,-18,127*,-1,-5,
COc1ccc(N2CCN(C(=O)c3ccc4ccccc4n3)CC2)cc1,i,-2,17,5,/,-11,1,3,
CC1C/C(=C\c2ccccc2[N+](=O)[O-])c2nc3ccccc3c(C(=O)O)c2C1 (stereo not drawn),i,8,-7,23,-16,-1,-3,0,
CNC(=O)CSc1nc2cc(S(=O)(=O)Nc3ccccc3OC)ccc2o1,i,-12,1,-7,7,2,-1,-5,

# Fetched by compound from the list above, 2 records:
SMILES,Rce1 inh,eIF4H inh,HIV Env fusion,PABP FP inh,Yeast UUG start,CSC inhib,MT1-MMP act inh,MT1-MMP act inh RFP,others
S=C(NCC1CCCO1)Nc1ccccc1 (stereo not drawn),i,-4,0,-3,-17,-6,-1,5,
COc1cccc(NC(=S)NCc2ccc(F)cc2)c1,i,-8,-41,5,-20,0,0,-5,

# (listing goes on)
SMILES,Rce1 inh,eIF4H inh,HIV Env fusion,PABP FP inh,Yeast UUG start,CSC inhib,MT1-MMP act inh,MT1-MMP act inh RFP,others
COC(=O)C1=C(C)N(Cc2ccccc2)C(=NCc2cccc(Cl)c2)N[C@H]1c1cccc(F)c1,/,/,/,/,2,134*,-10,-13,
NC(=O)C1CCN(C(=S)NC2CC3C=CC2C3)CC1 (stereo not drawn),/,-3,-4,2,-19,-21,2,3,
CC12CN(C(=O)c3ccco3)CC(c3ccccc3)(CN(C(=O)c3ccco3)C1)C2=O,i,-5,/,3,-13,-9,-1,0,
CC(C)c1nc(CNC(=O)CC2C(=O)NCCN2Cc2ccc(F)cc2Cl)cs1 (stereo not drawn),i,4,8,6,-10,-10,-4,2,
CCc1nc2cc(CC(=O)O)ccc2o1,i,-1,-30,5,-21,-13,2,-1,
CC(C)(C)OC(=O)C[C@H]1C/C=C\C[C@@H](CC(=O)NCCO)C(=O)N[C@H](C(C)(C)C)COC1=O,/,/,-25,/,-3,/,0,-1,
CC1(c2ccccc2)NC(=O)N(CC(=O)N2CCOCC2)C1=O (stereo not drawn),i,-4,-30,6,-11,0,-2,5,
CN1/C(=C\C=C2/C(=O)Oc3ccccc3C2=O)C(C)(C)c2ccccc21,i,?,-2,-8,/,-1,/,/,
CCOC(=O)C1=CCN(S(=O)(=O)c2cccc(Cl)c2)C1c1ccc(Br)cc1 (stereo not drawn),/,/,-3,/,-7,/,3,-2,
OC(c1ccc(F)c(F)c1)c1ncc(-c2ccc(F)cc2)[nH]1 (stereo not drawn),/,/,-2,/,-16,/,3,1,
COc1cc(NC(=O)C2CC3CCC2C3)c(OC)cc1Cl (stereo not drawn),i,/,13,/,-10,31,6,0,
Cc1noc(COc2ccccc2OCC(N)=O)c1Cl,i,1,/,-5,1,/,10,6,
O=C(COc1cccc2c1CCNC2=O)Nc1cccc(F)c1,i,/,-13,/,/,19,4,2,
O=C(CSc1nc(=O)n(CCN2CCOCC2)c2c1CCCC2)Nc1cccc([N+](=O)[O-])c1,i,/,-8,/,8,-11,-1,-2,
Cc1ccc(S(=O)(=O)N2CCOCC2)cc1NC(=O)c1ccc(F)cc1F,/,/,3,/,-8,-8,-2,0,
C=CCN1C=C2C(=O)C(C)(OC(=O)C3CCCC3)C(=O)C(c3ccccc3)=C2C=C1CCCC(=O)OC (stereo not drawn),i,19,-17,24,-8,4,-10,0,
Nc1nonc1-n1nnc(C(=O)N/N=C/c2ccccc2Cl)c1-c1ccc2c(c1)OCO2,i,1,3,0,-11,-1,-5,0,

# Screens (PubChem)
